Methyltransferases: Primary Screen for Target Class Profiling of Small Molecule Inhibitors of Methyltransferases; purified enzyme, MTase-Glo SAH luminescence; stronger effect = lower value; calls only at 40 µM; 25,000 compounds, 3.9% hits; AID 1745853, 2022; active = -50% or lower on at least one of six enzymes; inconclusive = the cases between; inactive = as a rule above -30% on all six;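 also: enzymes were COMT GAMT GNMT HNMT NNMT and PNMT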
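Each enzyme was assayed with SAM and its substrate. SAH formation detected by MTase-Glo luminescence; single-point 40 uM screen[…].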
Calls only; i = inactive; ? = inconclusive; + = active, no number. % is scaled to controls: 0 for no effect and ±100 for the full control effect. A portion of the library; count on the stated rates, not on these rows.

SMILES | Methyltransferases
COc1ccccc1NC(=O)N1CC(C(=O)NCC2CC2)CC(c2ccccc2)C1 (stereo not drawn) | i
O=c1cc2c(nn1Cc1cccc(Br)c1)CCCCC2 | i
CCn1ncc(CN2C[C@@H](COC)[C@H](c3ccncc3)C2)c1C | i
CCOCCCNc1nc2c(-c3ccccc3)nnn2c2ccccc12 | i
O=C(c1nc2ccccc2[nH]1)N1CCNc2cnc(Nc3ccc(-n4ccnc4)cc3)nc2C1 | ?
CCOC(=O)CC1(NC(=O)N2Cc3c(sc4c3CCCC4)-n3cccc3C2CC)CCCCC1 (stereo not drawn) | i
CC(C)C[C@H](NC(=O)[C@H]1O[C@@H]1C(=O)O)C(=O)NCCCCN=C(N)N | ?
COc1cccc(-c2ccc(CN3CCCC(N[S+](=O)([O-])c4c(C)noc4C)C3)cc2)c1 (stereo not drawn) | i
Cc1ccccc1C(=O)N(C)C1CCCc2ccccc21 (stereo not drawn) | i
CCc1ccc(C(=O)NC(Cc2c[nH]c3ccccc23)C(=O)OCC(=O)c2ccc(Br)cc2)cc1 (stereo not drawn) | i
CCc1c(-c2ccccc2)c(-c2ccccc2)nn1-c1ccccc1-c1cccc(OCC(=O)O)c1 | +
CC(=O)C1=C(O)C=C2Oc3c(C(C)=O)c(O)c(C)c(O)c3[C@]2(C)C1=O | i
COc1ccc(OC)c(CNS(=O)(=O)c2cc3[nH]c(=O)[nH]c3cc2C)c1 | i
O=c1c2ccccc2n2c(=O)n(Cc3ccccc3)nc2n1CCc1ccccc1 | i
CC(=O)OC[C@@]12[C@H](O)C[C@@H](C)[C@]3(C[C@@H](c4ccoc4)OC3=O)[C@H]1C[C@H](O)C[C@]21CO1 | i
CCCN1C(=O)c2cc(C(=O)N3CCCCC3)nn2CC1(C)C(=O)NC1CCCC1 (stereo not drawn) | i
CC(C)Cn1c(=O)c2ccccc2n2c(SCC(=O)NCc3ccccc3)nnc12 | i
O=S(=O)(c1cccc2c(Cl)cccc12)N1CCCNCC1 | ?
COC(=O)[C@@H]1Cc2ncn(Cc3ccccc3)c2CN1C(=O)c1cccs1 | i
CNC(=O)c1cc[nH]c1C1CCCN(C(=O)Cc2ccsc2)C1 (stereo not drawn) | i
COC(=O)CC(O)C1OC(c2ccccc2)C(O)C1O (stereo not drawn) | i
CCCn1c(=O)c2ccc(C(=O)NCC(C)C)cc2n2c(=O)n(Cc3cccc(F)c3)nc12 | i
O=C(/C=C/c1ccc(O)cc1)OC[C@H]1O[C@H](O[C@@]2(CO)O[C@@H](CO)[C@H](O)[C@H]2O)[C@H](O)[C@@H](O)[C@@H]1O | i
CC1(C(=O)NC2CCCCCCC2)Cn2c(cc3sccc32)C(=O)N1Cc1ccc2c(c1)OCO2 (stereo not drawn) | i
Cc1ccc(Nc2nc(C)cc3nn(CC(=O)Nc4ccc5c(c4)OCO5)c(=O)n23)cc1 | i
(more compounds)
SMILES | Methyltransferases
NS(=O)(=O)c1ccc(NC(=O)Nc2ccc(F)cc2)cc1 | i
COC[C@@H]1OCCN(S(=O)(=O)c2cc(OC)ccc2OC)[C@H]1c1ccccc1 | i
COc1ccc(NC(=O)Cn2c(=O)oc3cc(S(=O)(=O)NCc4ccccc4)ccc32)c(OC)c1 | i
COC1CCC12CCN(C(=O)c1cnc(C)cn1)CC2 (stereo not drawn) | i
CCc1noc([C@@H]2CC(F)(F)CN2C(=O)CCn2cc(C)cn2)n1 | i
Cc1ccc(Cn2c(=O)c3ccccc3n3c(SCC(=O)Nc4ccc(C)c(C)c4)nnc23)cc1 | i
O=C(c1nc(-c2cc(Cl)cc(Cl)c2)c2ccccn12)N1CCCC1 | ?
COc1ccc(CNC(=O)[C@@H]2CCC[C@@H](NC(=O)C3CC3)CN(C)C(=O)C2)cc1 | i
O=C(CCc1ccccc1)NCC(=O)N1CCN(c2ccccn2)CC1 | i
C=CCn1c(=O)c2ccc(C(=O)NC(C)CC)cc2n2c(=O)[nH]nc12 (stereo not drawn) | i
CC12CCC(C(OC3OC(COC4OCC(O)(CO)C4O)C(O)C(O)C3O)C1)C(C)(C)O2 (stereo not drawn) | i
FC(F)(F)c1ccccc1-c1cc(C(F)(F)F)c2nc(C3=NOC4(CCCCC4)C3)[nH]c2c1 | ?
Cc1ccc2c(c1)C=Cc1cc(C)ccc1C2c1cn(Cc2ccc(C(=O)Nc3nn[nH]n3)o2)c(=O)[nH]c1=S | +
CCCn1c(=O)c2[nH]c(-c3ccc(S(=O)(=O)O)cc3)nc2n(CCC)c1=O | i
CC1(C(=O)NC2CCCCCC2)Cn2c(cc3occc32)C(=O)N1CCc1ccccc1 (stereo not drawn) | i
CCOc1ccc(N2C(=O)c3c(C(=O)OC)ncn3CC2(C)C(=O)NCCCOC(C)C)cc1 (stereo not drawn) | i
CC1CCN(S(=O)(=O)c2ccc3c(c2)oc(=O)n3CC(=O)N2CCN(c3ccccc3F)CC2)CC1 | i
Cc1cccc(CN2CCN3C(=O)N(Cc4ccc(F)cc4)C[C@H]3C2)n1 | i
COc1cccc(CN2C(=O)c3cc(-c4cccs4)nn3CC2(C)C(=O)NC2CCCCC2)c1 (stereo not drawn) | i
CC/C=C/CC1=C(CCCCCCCC(=O)O)CCC1=O | i
COc1cccc(C(=O)NCCN2CCN(c3ccc(Cl)cc3)CC2)c1 | i
O=C(c1ccc(C(F)(F)F)cc1)N1CCC2(CC1)CNc1ccccc1[S+](=O)([O-])N2 | i
CCCCCC(=O)N1CC[C@@H](CC(=O)N(C)CC#N)[C@@H](CC)C1 | i
Cc1cnc(C(=O)NC2C[C@H]3CC[C@@H](C2)N3C(=O)c2ccccc2C)cn1 (stereo partly drawn) | i
Cc1ccc(Nc2ccn3c(=O)n(CC(=O)Nc4ccc(F)cc4F)nc3n2)cc1 | i

In the list so far, these have fluorine.
SMILES | Methyltransferases
CCCn1c(=O)c2ccc(C(=O)NCC(C)C)cc2n2c(=O)n(Cc3cccc(F)c3)nc12 | i
NS(=O)(=O)c1ccc(NC(=O)Nc2ccc(F)cc2)cc1 | i
CCc1noc([C@@H]2CC(F)(F)CN2C(=O)CCn2cc(C)cn2)n1 | i
FC(F)(F)c1ccccc1-c1cc(C(F)(F)F)c2nc(C3=NOC4(CCCCC4)C3)[nH]c2c1 | ?
CC1CCN(S(=O)(=O)c2ccc3c(c2)oc(=O)n3CC(=O)N2CCN(c3ccccc3F)CC2)CC1 | i
Cc1cccc(CN2CCN3C(=O)N(Cc4ccc(F)cc4)C[C@H]3C2)n1 | i
O=C(c1ccc(C(F)(F)F)cc1)N1CCC2(CC1)CNc1ccccc1[S+](=O)([O-])N2 | i
Cc1ccc(Nc2ccn3c(=O)n(CC(=O)Nc4ccc(F)cc4F)nc3n2)cc1 | i

Back to the main list, repeating the 6 entries before the break.
SMILES | Methyltransferases
CC/C=C/CC1=C(CCCCCCCC(=O)O)CCC1=O | i
COc1cccc(C(=O)NCCN2CCN(c3ccc(Cl)cc3)CC2)c1 | i
O=C(c1ccc(C(F)(F)F)cc1)N1CCC2(CC1)CNc1ccccc1[S+](=O)([O-])N2 | i
CCCCCC(=O)N1CC[C@@H](CC(=O)N(C)CC#N)[C@@H](CC)C1 | i
Cc1cnc(C(=O)NC2C[C@H]3CC[C@@H](C2)N3C(=O)c2ccccc2C)cn1 (stereo partly drawn) | i
Cc1ccc(Nc2ccn3c(=O)n(CC(=O)Nc4ccc(F)cc4F)nc3n2)cc1 | i
Cc1cc(C)cc(CCC(=O)N2CCN(c3ccc(C#N)cn3)CC2)c1 | i
O=[S+]([O-])(c1cccs1)N1CCCC2(CC(c3ccccc3)=NO2)C1 (stereo not drawn) | i
O=C(CCc1nnc2n(Cc3ccccc3Cl)c(=O)c3ccccc3n12)NCc1cccnc1 | i
COc1ccccc1CCNC(=O)c1cc2n(n1)CC(C)(C(=O)NCc1ccc(C)cc1)N(C)C2=O (stereo not drawn) | i
OC[C@@H]1O[C@H](CNC2CCOCC2)[C@H](N2CCCC2)[C@@H]1O | i
COC(=O)c1ccc(NS(=O)(=O)c2ccc3[nH]c4c(c3c2)CCCC4)cc1 | i
COc1ccccc1CNC(=O)C1(C)Cn2c(cc3ccccc32)C(=O)N1Cc1cccc(Cl)c1 (stereo not drawn) | i
C=C1C(=O)OC[C@@H]1C/C=C(\C)CC1CC(C)C(=O)O1 (stereo partly drawn) | +
COc1ccccc1CN1C(=O)c2ccc(-c3ccccc3)n2CC1(C)C(=O)NC1CCCCCC1 (stereo not drawn) | i
COCCOC1CCN(C(=O)Nc2cccc(C)c2)CC1 | i
CC1=C[C@H]2[C@@H](CC1=O)[C@H](C)C[C@H](O)[C@H]2C(C)C | i
CC(=O)/C=C/C1(O)C(C)=CC(=O)CC1(C)C (stereo not drawn) | i
Cc1ccc(S(=O)(=O)N[C@@H](Cc2ccccc2)C(=O)CCl)cc1 | i
C[C@@H]1CC[C@]2(C(=O)OC3OC(CO)C(O)C(O)C3O)CC[C@]3(C)C(=CCC4[C@@]5(C)CC[C@H](O)[C@](C)(C(=O)O)C5CC[C@]43C)C2[C@]1(C)O (stereo partly drawn) | i
Cc1nc(-c2cccc(Cl)c2)n(CC(=O)NCc2ccc(F)cc2)c(=O)c1CCO | i
CC(C)=CCC[C@](C)(O)[C@H]1CC[C@]2(C)[C@@H]1[C@H](O)CC1[C@@]3(C)CC[C@H](O)C(C)(C)C3[C@@H](O[C@@H]3O[C@H](CO)[C@@H](O)[C@H](O)[C@H]3O[C@@H]3OC[C@@H](O)[C@H](O)[C@H]3O)C[C@]12C (stereo partly drawn) | i
CCN(CC)CCNC(=O)c1cc(S(C)(=O)=O)ccc1OC | i
Cc1ccc(C(=O)N2CC(Oc3ccc(F)c(C)c3)C2)cc1 | i
C=CCn1c(=O)c2ccc(C(=O)NC(C)C)cc2n2c(=O)n(CC(=O)Nc3ccc(Cl)cc3)nc12 | i
Cc1cccc(NC(=O)CSc2nnc3n(CCC(C)C)c(=O)c4ccccc4n23)c1 | i
CCOC(=O)c1cc2n(n1)CC(C)(C(=O)NC1CCCCC1)N(c1ccc(C)cc1C)C2=O (stereo not drawn) | i
COCCNC(=O)CN1C(=O)NC(c2cccs2)C2=C1COC2=O (stereo not drawn) | i
COc1ccc2cc(C3CN(C(=O)CNC(=O)C(C)C)CCO3)ccc2c1 (stereo not drawn) | i
CCC(C)NC(=O)c1ccc2c(=O)n(C)c3nn(Cc4ccc(C)cc4)c(=O)n3c2c1 (stereo not drawn) | i
CC(C)Oc1ccc(C(=O)N2Cc3cnn(Cc4ccc(F)cc4)c3C2)cc1 | i
Next section
SMILES | Methyltransferases
O=C(CCc1nnc2n(CCc3ccccc3)c(=O)c3ccccc3n12)NCCc1c[nH]c2ccccc12 | i
Cc1noc(C)c1C(=O)N1CC(n2cc(COCc3ccccc3)nn2)C1 | i
CCCn1c(=O)c2ccc(C(=O)NC(C)C)cc2n2c(=O)n(C(C)C(=O)c3ccc(C)c(C)c3)nc12 (stereo not drawn) | i
CC1NC(=O)C(Cc2c[nH]c3ccccc23)NC1=O (stereo not drawn) | i
CCOC(=O)c1cccc(CNc2ccc(N(C)C(=O)Nc3ccccc3)cc2)c1 | i
Cc1ccsc1CCNC(=O)Cn1c(=O)oc2cc(S(=O)(=O)NCc3ccccc3)ccc21 | i
CCc1cc2c(cc3n2CC(C)(C(=O)NC2CCCCCC2)N(C2CCCCC2)C3=O)s1 (stereo not drawn) | i
CC(C)CN1CCN(C(=O)c2ccc3c(c2)N(S(C)(=O)=O)CC3)CC1 | i
CCCn1c(=O)c2ccc(C(=O)NCC(C)C)cc2n2c(=O)n(CC(=O)Nc3cccc(F)c3)nc12 | i
CC(C)(C)NS(=O)(=O)c1cncc(-c2cc(F)c3nc(N)nn3c2)c1 | i
COc1ccc(OC)c(NS(=O)(=O)c2cc3c(cc2C)n(C)c(=O)n3C)c1 | i
Cc1cccc2c1nc1n2[C@@H](CNCc2nc3ccccc3n2C)COC1 | i
CN(C)CCN(C)[C@H]1[C@@H]2OC[C@@H](O2)[C@@H](NCc2ccc(N(C)C)cc2)[C@@H]1O | i
C=CC(=O)N1CCCN(c2cc(NCCC(=O)O)nc(-c3ccccn3)n2)CC1 | ?
CCCO[C@@H]1O[C@H](CO)[C@@H](O)[C@H](O)[C@H]1O[C@@H]1OC[C@@H](O)[C@H](O)[C@H]1O | i
COc1ccc(OC)c(CCN2C(=O)c3cc4ccccc4n3CC2(C)C(=O)NCc2ccccc2)c1 (stereo not drawn) | i
CS(=O)(=O)N1CCCN(C(=O)CCCc2ccccc2)c2ccccc21 | i
CCCCNc1nc2c(S(=O)(=O)c3ccc(C)cc3)nnn2c2ccccc12 | i
COc1ccc(S(=O)(=O)N2CCCC(c3nnnn3-c3ccccc3)C2)cc1 (stereo not drawn) | i
COc1ccc(CNC(=O)C2(C)Cn3cnc(C(=O)NCc4ccccc4OC)c3C(=O)N2C2CC2)cc1 (stereo not drawn) | i
CC(C)CCNC(=O)C1(C)Cn2c(cc3ccccc32)C(=O)N1Cc1ccc2c(c1)OCO2 (stereo not drawn) | i
CCOc1ccc(N2C(=O)CSc3c(c4ccccc4n3C)C2C(=O)NCCCOC(C)C)cc1 (stereo not drawn) | i
CC(=O)N1c2ccc(S(=O)(=O)N(C)CC(=O)N3CCN(c4cc(C)ccc4C)CC3)cc2CC1C (stereo not drawn) | i
CCN1C(=O)Cc2cc(C(=O)NCc3c(C)cc(C)cc3C)ccc21 | i
Cc1ccc(S(=O)(=O)c2nnn3c2nc(N2CCN(c4ccccn4)CC2)c2ccccc23)cc1 | i
Next results follow.
SMILES | Methyltransferases
Cn1c(=O)n(C)c2cc(Nc3nc4ccccc4nc3NS(=O)(=O)c3ccc(Cl)cc3)ccc21 | i
Cc1cccc(NC(=O)N2CCCCC2c2nc(-c3cnccn3)n[nH]2)c1 (stereo not drawn) | i
Cc1nc(C2(C)CCN(C(=O)CCCC(=O)n3nc(C)c4ccccc43)CC2)no1 | i
CCN1C(=O)c2c(C(=O)NCc3ccccc3Cl)ncn2CC1(C)C(=O)NC1CCCC1 (stereo not drawn) | i
CC(C)OCCCNC(=O)CCc1nnc2ccc(NCc3ccc4c(c3)OCO4)nn12 | i
CNC(=O)CCn1ccc2cc(S(=O)(=O)N3CCC(C)CC3)ccc21 | i

High-throughput results: PubChem BioAssay, National Center for Advancing Translational Sciences (NCATS)
